A1 inh: inhibitors of the anti-apoptotic protein A1, read as caspase activation. MEF A1-2A-BIM cells, Caspase-Glo 3/7 luminescence, 3 h; percent of clofoctol response, vehicle zero. caspase activation, % (test concentration not listed). 330,000 tested, 0.066% active. AID 2462;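 active = over half of replicate activation scores above 10%, or exactly half above 10 with the replicate mean above 10; inconclusive = replicate mean below 10 yet half the replicates above 10; inactive = over half of replicates below 10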;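 note: wells of about 30 µL received 50 nL stock; many hits fall short of the cut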
Beta2AR agonist: activates human beta-2 adrenergic receptor causing internalization. P07550. Am2.2-beta2AR cells, FAP receptor internalization, flow cytometry; reference of the scale not given here. response, % (no concentration beside the values). 340,000 tested, 0.43% active. AID 504454;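 active = response above a set limit, near 3 SD of response in nonfluorescent compounds, cut at about 42% in these data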;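 note: stock transfer was 100 nL into about 11 µL; a reference agonist was the positive control; negative values mostly stem from fluorescent compounds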
Target sequence (P07550 whole entry, looked up): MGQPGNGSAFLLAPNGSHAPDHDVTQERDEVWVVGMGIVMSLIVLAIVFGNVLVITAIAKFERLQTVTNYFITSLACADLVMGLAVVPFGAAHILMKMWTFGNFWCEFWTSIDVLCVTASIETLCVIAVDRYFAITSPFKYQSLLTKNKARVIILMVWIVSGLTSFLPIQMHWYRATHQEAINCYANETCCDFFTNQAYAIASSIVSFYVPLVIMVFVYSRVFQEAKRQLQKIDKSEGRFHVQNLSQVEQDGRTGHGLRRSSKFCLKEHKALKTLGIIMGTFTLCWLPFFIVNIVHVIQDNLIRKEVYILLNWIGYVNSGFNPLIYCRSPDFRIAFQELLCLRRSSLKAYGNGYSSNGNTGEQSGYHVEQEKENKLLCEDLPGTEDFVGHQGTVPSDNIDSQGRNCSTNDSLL
LANA-H2A inh: blocks KSHV LANA binding to histone H2A/H2B; inhibition, % (concentration not given with the values); 320,000 tested, 0.6% active; AID 2629; cell-free LANA-H2A/H2B peptide, fluorescence polarization; in the data active = inhibition mostly above about 10%, no sharp cut-off; inactive = mostly below about 6.7%;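 note: stock transfer was 7.5 nL into about 10 µL; 0% = median of vehicle wells and 100% = median of positive control wells; one replicate is shown; the record names a cut of 25% in any replicate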
ALR inh: inhibitors of human sulfhydryl oxidase ALR. inhibition, % (concentration not given with the values). P55789. AID 485317. purified ALR, DTT oxidation, H2O2 HRP-luminol luminescence. 290,000 tested, 3.8% active;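 active = mean and each replicate at 75% or more; inconclusive = only one of the two met; inactive = neither met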;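 note: stock transfer was 7.5 nL into about 7.5 µL; 0% = neutral wells and 100% = wells with inactivated enzyme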
Target sequence (P55789 whole entry, looked up): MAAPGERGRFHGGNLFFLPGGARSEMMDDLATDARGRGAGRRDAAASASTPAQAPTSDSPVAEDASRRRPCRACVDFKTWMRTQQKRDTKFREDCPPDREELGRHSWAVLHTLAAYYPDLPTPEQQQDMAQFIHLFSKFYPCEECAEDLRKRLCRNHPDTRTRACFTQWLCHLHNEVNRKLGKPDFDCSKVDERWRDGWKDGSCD
Beta cell apopt: blocks beta cell apoptosis; protection from apoptosis, % (test concentration not listed); INS-1E cytokine-induced death, ATP luminescence, 48 h; percent of positive-control rescue, neutral wells zero; AID 435005; 300,000 tested, 0.8% active;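 active = all replicates at 75% or more, or half of them and the mean; inconclusive = half reach 75% but not the mean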;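 note: 0% = cytokine-treated negative control wells and 100% = positive control rescue; higher means more ATP so stronger rescue from cytokine killing; wells of about 40 µL received 100 nL stock; the first replicate is given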
T cruzi inh: blocks replication of Trypanosoma cruzi; T. cruzi beta-gal in NIH3T3, luminescence, 90 h; inhibition, % (test concentration not listed); 300,000 tested, 1.4% active;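 active = mean inhibition across valid replicates above about 55%, limit read from the data; inconclusive = mean below that limit but half or more replicates reach it; inactive = mean below it, under half of replicates reach it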;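 note: signal also drops with host cell toxicity which is not excluded here; 0% = plate median of DMSO wells and 100% = zero luminescence signal; higher percent means less beta-gal luminescence so fewer parasites; stock transfer was 50 nL into about 50 µL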
Calb FLC: C. albicans growth modulation with fluconazole. C. albicans CaCi-2 (fluconazole-resistant clinical isolate) + fluconazole, Alamar Blue growth, 48 h. growth inhibition, % (no concentration beside the values). 300,000 tested, 0.57% active;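 active = most replicates above 75%; inconclusive = exactly half above 75%; inactive = most below 75%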;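 note: all wells also contain fluconazole at 8 µg/ml as a sub-toxic cotreatment; 0% = median of DMSO wells and 100% = median of geldanamycin control wells; wells of about 8 µL received 7.5 nL stock; the first replicate is given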
Ecoli rRNA inh: inhibitors of bacterial rRNA selective over humanized ribosomes. GFP signal change (wild-type ribosome), % (test concentration not listed). 350,000 tested, 1.6% active. AID 720706. E. coli WT GFP vs humanized-ribosome RFP mutants, fluorescence, 24 h; active compounds read low; DMSO median 0, no signal -100;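 active = significant combined selectivity score with lowered wild-type GFP, culture density cut under 30%, mutant RFP and density less affected; inactive = any of these conditions unmet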; note: one replicate is shown; some compounds called inactive have numbers as strong as hits
Ecoli rRNA inh OD600: second read-out of Ecoli rRNA inh, no call of its own (marks repeat the call); OD600 change, %; measured here: OD600 growth;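 optical density of the mix in the first replicate; 0 = DMSO median and -100 = no signal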
Ecoli rRNA inh RFP: further read-out of Ecoli rRNA inh, marked with its call; RFP signal change, %; measured here: RFP humanized mutant strains;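 first replicate; 0 = DMSO median and -100 = no signal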
Active calls of the source: *; ? = inconclusive; / = not tested or not shown. The list is partial. The share of hits here may be higher or lower than overall.

Structure	A1 inh	Beta2AR agonist	LANA-H2A inh	ALR inh	Beta cell apopt	T cruzi inh	Calb FLC	Ecoli rRNA inh	Ecoli rRNA inh OD600	Ecoli rRNA inh RFP
CCN(CC)S(=O)(=O)c1cccc(C(=O)OCC(=O)NCc2ccccc2OC)c1	-0.4	8	1.0	0	0	-5	-2	-11	-22	2.4
CCCC(C)NC(=O)c1cccc(Oc2ccccc2)c1 (centres undefined)	-1.2	-6	-8.6	-11	0	15	-2	-3	-9	2.9
COCc1cc(C)nc(N2CCOCC2)c1C#N	-0.7	14	-3.5	-37	0	-5	3	2	8	-1.4
C=CCNC(=O)C1CC2Cn3c(nc4cc(Cl)c(Cl)cc43)C2N1C (centres undefined)	-0.2	-11	-1.8	/	-5	-10	10	5	16	6.7
O=C1C2C3C=CC(CC3)C2C(=O)N1c1cccc(Br)c1 (centres undefined)	-1.3	-9	7.2	-17	2	-3	-10	10	11	1.3
Clc1ccc(/C=N/Nc2nnc(-c3ncc[nH]3)c3ccccc23)cc1	-1.8	2	-0.3	31	4	27	-26	/	/	/
Cc1ccnc(SCCn2c(N3CC(C)OC(C)C3)nc3c2c(=O)n(C)c(=O)n3C)n1 (centres undefined)	0.0	-5	-6.9	-16	1	-6	-2	8	8	-0.3
O=C1CN=CN=CN1c1ccc(Cl)cc1Cl	0.0	0	-2.8	6	0	-24	20	0	2	-0.7
COc1ccccc1-c1nnc(SCC(=O)NCc2cccs2)n1N	-0.8	3	3.1	-16	-13	-13	-4	3	-2	0.5
COc1ccc(CCNC(=O)C2CCN(C(=O)c3ccc(Cl)cc3)CC2)cc1	0.1	-2	-2.1	/	0	-14	-8	-11	-3	-3.6
COc1ccc(CN2CCNC(=O)C2CC(=O)NCCc2nc(C)c(C)s2)c(OC)c1 (centres undefined)	1.9	-3	-1.6	/	-2	-20	-15	10	8	1.6
CCn1cc(CN2CCC(C(=O)Nc3cccc(-c4cccc(Cl)c4)c3)CC2)c(C)n1	0.8	19	6.5	-7	-5	20	2	-52	-79	-18
CCCc1nnc(SCCSc2nnc(CCC)n2N)n1N	-0.4	-2	2.1	-9	8	5	-7	/	/	/
Cc1ccc(NC(=O)COC(=O)[C@@H]2CCCN2C(=O)c2cccs2)cc1S(=O)(=O)N(C)C	-0.2	6	-0.9	/	-8	-2	-2	-12	-10	4.1
COc1cccc(/C=N/n2c(C3CCCCC3)n[nH]c2=S)c1	1.2	27	2.2	/	/	-1	32	-4	-8	2.4
O=C(c1ccc(S(=O)(=O)NCC2CCCO2)cc1)N1CCc2ccccc21 (centres undefined)	0.1	9	1.2	-6	2	-5	?	/	/	/
CCOC(=O)C1=NNC2(CC(=O)N(c3cccc(C)c3)C2=O)C1 (centres undefined)	0.2	9	-4.7	-11	0	-27	-7	15	5	1.8
Cc1ccc(C)c(N2CCN(S(=O)(=O)c3cn(C)cn3)CC2)c1	0.8	-4	-2.7	5	-3	-3	2	-3	-2	-0.6
CCCc1cc(=O)[nH]c(SCC(=O)N2CCN(S(=O)(=O)c3ccc4ccccc4c3)CC2)n1	0.7	-5	2.0	/	-10	8	1	/	/	/
Cc1cc(C)cc(Oc2ccccc2/C=C\C(=O)O)c1	0.0	2	-1.0	22	-1	-13	-1	/	/	/
CCOc1ccc(S(=O)(=O)NCc2csc(C)n2)cc1	-0.1	-3	1.4	-5	-3	-20	-3	/	/	/
CCOC(=O)C1CCN(C(=O)c2cccnc2Oc2ccc(Cl)cc2)CC1	0.1	3	-0.7	-3	-7	-22	-2	-4	-1	-0.7
Cc1ccc(NC(=O)CN2CCOCC2)cc1	0.3	3	-3.6	/	-2	-10	-4	12	17	0.7
O=C1NC(=Nc2cccc(O)c2)S/C1=C\c1cccnc1	-0.3	10	19	-1	-9	13	-9	10	-3	1.3
Cc1cccc(N2CCN(S(=O)(=O)c3ccc4c(c3)NC(=O)C(C)S4)CC2)c1C (centres undefined)	-2.0	-3	4.8	6	1	12	-17	-12	-10	-0.9

(list continues)
Structure	A1 inh	Beta2AR agonist	LANA-H2A inh	ALR inh	Beta cell apopt	T cruzi inh	Calb FLC	Ecoli rRNA inh	Ecoli rRNA inh OD600	Ecoli rRNA inh RFP
COC(=O)c1ccc(CSc2nnc(NCc3ccccc3)s2)o1	0.8	4	4.0	-12	0	22	-5	/	/	/
Cc1ccc(SCc2c(-c3ccccc3)nn(C)c2Cl)cc1	-0.2	2	-5.9	-5	1	7	0	/	/	/
Cc1c(OCC(=O)N2CCC(C(N)=O)CC2)ccc2c3c(c(=O)oc12)CCCC3	1.9	-17	2.1	-39	-6	-5	-10	/	/	/
Cc1ccc(-c2cc3ccccc3nc2N)cc1	-0.1	-1	-1.5	2	23	30	-24	-18	-15	-2.5
O=C(COC(=O)c1cncc(Br)c1)NC12CC3CC(CC(C3)C1)C2	-2.0	/	20*	-10	4	/	/	4	9	10
O=C(Nc1ccc2c(c1)CCC2)c1ncoc1-c1ccccc1F	/	-5	/	/	/	9	-5	-3	-14	-4.3
C/C(=N\NC(=O)c1c(Cl)cnn1C)c1ccc(NC(=O)c2ccc(Br)o2)cc1	-2.0	8	-0.6	-1	3	12	-8	6	5	0.6
Cc1ccc(C(=O)N(C)CCOc2ccccc2)cc1S(=O)(=O)N1CCCCC1	0.2	2	4.4	-8	2	/	/	-12	-19	-0.7
COCCN(C(=O)CSc1nnc(C)n1-c1ccc(C)cc1)c1c(N)n(Cc2ccccc2)c(=O)[nH]c1=O	1.2	-1	0.2	-4	-3	-5	-2	3	10	-1.9
CN(Cc1nc(CC2CC2)no1)CC12CC3CC(CC(C3)C1)C2	0.0	-4	-0.5	-10	2	13	-29	12	4	-1.3
CC(CCc1ccco1)NC(=O)c1cccc2c1C(=O)N(C1CCCCC1)C2 (centres undefined)	0.6	1	-0.3	1	0	26	7	9	0	-1.4
O=C(COc1ccc(Cl)cc1Cl)Nc1cccnc1	-1.1	-1	2.2	22	-28	-5	4	-8	-4	2.2
Cc1nnc2n(C3CCCCC3)c(=O)c3c4c(sc3n12)COC(C)(C)C4	0.3	-8	5.7	0	4	3	16	/	/	/
COc1ccccc1CCNC(=O)C1CCC(=O)N(C2CC2)C1 (centres undefined)	0.2	2	-2.1	-1	-13	-17	2	9	-1	-3.5
CC(=O)c1cccc(N(C(=O)c2ccccn2)C(C(=O)NC2CCCCC2)c2ccccc2)c1 (centres undefined)	0.2	2	3.8	-1	1	1	2	5	14	-0.8
CCN(CC)C(=O)Oc1cc(COC)nc(-c2ccccc2)n1	0.0	-8	6.8	4	-1	22	4	-14	-11	-3.7
COc1ccc(-c2nsc3c(N4CCCC4)ncnc23)cc1	-5.9	-8	2.8	-11	0	1	-15	/	/	/
CCc1c(C(C)S(=O)(=O)c2ccc(C)cc2)[nH]c(=O)n1-c1ccc(C)cc1 (centres undefined)	0.8	12	-3.8	21	-13	-10	-6	/	/	/
Cc1cccc(Oc2ncnc(N)c2[N+](=O)[O-])c1	-0.6	4	-2.2	0	-7	-2	7	/	/	/
Cc1cc2c(OCC(O)CNC3CCCCC3)cccc2[nH]1 (centres undefined)	-0.3	-15	1.5	19	-7	-7	-7	5	2	-1.1
O=C(Cn1cnc2ccccc2c1=O)NCc1ccc2c(c1)OCO2	-0.3	-13	7.9	/	-11	/	/	/	/	/
O=C(NC(=S)NNC(=O)c1cccs1)c1ccco1	0.5	0	0.1	97*	-1	-22	-3	/	/	/
Cc1cc(C)cc(N(CC(=O)N2CCCC2)S(C)(=O)=O)c1	1.5	-8	2.9	2	-2	2	-2	15	10	2.8
N#CCCn1cc(C=C(C#N)C#N)c(-c2ccc(Cl)cc2)n1	0.3	10	4.5	-1	-5	-6	-1	6	6	5.4
COCCNC(=O)c1ccc(C2SCC(=O)N2Cc2ccco2)cc1 (centres undefined)	0.7	4	2.9	-2	-1	-3	-10	4	2	-1.8

Next section
Structure	A1 inh	Beta2AR agonist	LANA-H2A inh	ALR inh	Beta cell apopt	T cruzi inh	Calb FLC	Ecoli rRNA inh	Ecoli rRNA inh OD600	Ecoli rRNA inh RFP
O=C(Nc1ccc2[nH]ncc2c1)C1CCC1	0.2	-7	-11	-51	-2	-4	-4	10	8	2.1
CC(C)Cn1c(=O)n(C)c(=O)c2[nH]cnc21	-0.4	1	-0.5	6	6	-17	-2	/	/	/
CCCC(=O)N=C1SC2CS(=O)(=O)CC2N1c1ccc(CC)cc1 (centres undefined)	1.8	-8	2.6	-8	-6	-5	-11	/	/	/
CCCn1c(N)c(N(CCOC)C(=O)c2cc(C)cc(C)c2)c(=O)[nH]c1=O	1.2	3	5.8	-4	/	-3	-6	/	/	/
COc1ccc(CCN(C)CC(O)COc2ccc(C(C)=O)cc2OC)cc1OC (centres undefined)	-0.2	3	-0.3	/	-3	44	-7	6	9	2.1
O=C(OCc1ccccc1)c1cn(-c2ccccc2)nc1-c1ccncc1	0.3	-24	1.4	-5	/	57*	1	/	/	/
CCNc1nc(C)c(CN(C(C)=O)c2ccccc2)nc1C#N	1.2	-3	1.4	2	-11	2	2	/	/	/
CCCCN(CC)S(=O)(=O)c1ccc(C(=O)Nc2nnc(-c3cccs3)o2)cc1	2.4	/	-3.6	1	1	63*	-4	/	/	/
Clc1ccc(N2N=C(c3cccs3)CC2c2ccco2)cc1 (centres undefined)	-0.5	9	2.0	-5	2	12	-7	/	/	/
CC(Oc1ccc2cc(-c3ccccc3)c(=O)oc2c1)C(=O)NCC1CCC(C(=O)O)CC1 (centres undefined)	-1.6	-2	-0.5	-6	-6	9	-2	/	/	/
CCc1cc2c(N3CCN(c4ccccc4)CC3)ncnc2s1	0.3	-4	5.9	47	12	26	-5	/	/	/

Assay outcomes deposited in PubChem BioAssay by several laboratories.
